Sa ugtP lethal – growth inhibition of ugtP-null S. aureus, primary screen, RN4220 ugtP deletion, OD600 | 16 h; some inactives read as strong as hits | growth inhibition, % (test concentration not listed) | actives 0.54% (n = 330,000);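 active = z-score under -3 and OD600 up to 0.15 on both plates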;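 also: plate controls were untreated wells for no effect and antibiotic for full effect; wells of about 80 µL received 100 nL stock; the first replicate is given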
Mtb hypoxia rep – PubChem AID 1159583 | M. tuberculosis hypoxia-regulated fluorescent reporter, fluorescence | fluorescence inhibition, % (concentration not given with the values) | actives 0.1% (n = 300,000);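 active = 35 to 45% if threefold the growth effect, above 45% if 1.5-fold the growth effect; inactive = the rest, general growth blockers included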;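 also: wells of about 50 µL received 100 nL stock; 0% = vehicle wells and 100% = reference inhibitor wells; whole bacteria with a GFP reporter of the hypoxia response; strong numbers were not always called active; many hits fall short of the cut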
Autofluor counter – compound fluorescence in toxin protease inhibitor counterscreen. compound autofluorescence counterscreen, microsphere flow cytometry; hits give high values. fluorescence intensity (concentration not given with the values). actives 3.1% (n = 360,000). AID 624483;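 active = at least 3 SD above the mean of all compounds, about 16000 in these data; inconclusive = too few beads counted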;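 also: 100 nL of 1 mM stock went into each well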
BJeLR viability – MLPCN primary cell-based screen for lethality selective to Ras in HRASV12 cells; BJeLR (HRASV12) viability, CellTiter-Glo ATP luminescence, 48 h; reference of the scale not given here; inhibition, % (test concentration not listed); actives 0.17% (n = 300,000);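 active = replicate mean above 50%; inconclusive = above 50% but judged a plate artefact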;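 also: 50 nL library stock added to about 25 µL; numbers are from one replicate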
PrP 5UTR inh – inhibition of PrP 5' UTR reporter expression; cell-based PrP 5' UTR mRNA reporter, plate reader; actives 0.35% (n = 340,000); inhibition, % (test concentration not listed);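 active = every replicate at 50% or more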;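 also: 0 = median of the neutral control wells; tested in H4 reporter cells; numbers are from one replicate; inactives centre near -14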
RN4220 kill – growth inhibition of S. aureus RN4220, primary screen, OD600. actives 0.33% (n = 330,000). inhibition, % (no concentration beside the values). 16 h. AID 1259311, 2017;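 active = z-score of -3 or lower and OD600 up to 0.18 on both plates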;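 also: plate controls were untreated cells for no effect and reference antibiotic for full effect; stock transfer was 100 nL into about 80 µL; one replicate is shown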
Mtb hypoxia rep growth – second read-out of Mtb hypoxia rep, no call of its own (marks repeat the call); growth inhibition, %; measured here: M. tuberculosis growth (absorbance);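 0% = vehicle and 100% = reference antibiotic; read after six days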
* hit, by the source's call; ? = inconclusive; nt = no result given.

SMILES	Sa ugtP lethal	Mtb hypoxia rep	Mtb hypoxia rep growth	Autofluor counter	BJeLR viability	PrP 5UTR inh	RN4220 kill
CC(=O)Nc1ccc(S(=O)(=O)N2CCCC3CCCCC32)cc1 (stereo unspecified)	1	2	-2	4307	nt	-35	8.8
CCC(C)(C)NC(=O)CN(Cc1ccc2c(c1)OCO2)C(=O)CCC(=O)Nc1ccccn1	5	nt	nt	4611	9	-14	2.1
COc1cc(CCC(=O)OCC(=O)Nc2ccc(F)cc2F)cc(OC)c1OC	-1	17	0	4030	-10	-2	-2.2
C=CCn1c(C)nnc1SCC(=O)Nc1ccccc1C(=O)NC1CC1	3	3	1	?	nt	-1	4.3
C/C(=N\NC(=O)CCc1ccc(S(=O)(=O)N2CCOCC2)cc1)c1ccccc1Cl	nt	nt	nt	4199	4	-9	nt
CC(=O)c1ccc(N2CCN(C(=O)/C=C/c3ccc4ccccc4n3)CC2)cc1	7	4	9	3413	-4	0	14
CCCn1c(C(O)c2cccc(OC)c2)nc2ccccc21 (stereo unspecified)	-2	7	6	3118	-4	-15	-1.7
COc1ccccc1NS(=O)(=O)c1ccc(C(=O)Nc2ncccc2O)cc1	-2	11	1	2977	nt	-28	5.0
COc1cc(/C=C/c2ccc3c(Br)cc(Br)c(O)c3n2)ccc1O	100*	6	9	3906	39	28	99*
O=C(NCCC1=CCCCC1)c1ccc(F)c(S(=O)(=O)N2CCOCC2)c1	-11	4	6	3255	-5	-14	-8.6
CCN(CC)c1ncnc2sc(C(=O)N3CCN(c4ccccc4)CC3)c(C)c12	17	nt	nt	2937	2	-4	2.4
Cc1cc(F)ccc1NC(=O)c1cc(S(=O)(=O)N2CCOCC2)cn1C	4	2	-2	6169	2	-25	-11
CC(=O)c1ccc(OCC(=O)NCc2ccc(F)cc2)cc1	-12	-6	6	3236	6	-25	0.1
COc1ccc2ccc(=O)oc2c1CC(O)C(C)(C)O (stereo unspecified)	4	nt	nt	5783	-4	-11	3.2
CCn1c(SCC(=O)NCC2CCCO2)nnc1-c1ccc(Cl)cc1 (stereo unspecified)	7	0	-7	2024	0	2	2.8
Cc1ccc(S(=O)(=O)N2CCN(C(=O)C3Cc4ccccc4CN3C(=O)c3ccco3)CC2)cc1 (stereo unspecified)	2	nt	nt	4678	1	-37	-1.1
N#Cc1ccc(S(=O)(=O)NCC(=O)OCC(=O)N2CCCC2=O)cc1	10	14	-5	6021	15	-36	1.4
CC(Cc1ccccc1)C(=O)NCCO (stereo unspecified)	1	4	6	3818	-1	-6	5.4
CN(C)c1ccc(/C=C(\NC(=O)c2ccccc2)C(=O)NCCN2CCOCC2)cc1	3	1	12	3700	-11	-18	1.5
Nc1ccc(C(=O)OCC(=O)NC2CCS(=O)(=O)C2)cc1[N+](=O)[O-] (stereo unspecified)	4	10	14	4458	-2	-14	4.9
C[N+](C)(C)C[C@H](O)CC(=O)[O-]	-12	nt	nt	5464	0	2	-0.8
CN(C)CCNc1nc2sc3c(c2c(=O)n1CCc1ccccc1)CCCCC3	3	6	3	4452	2	-20	-6.0
COC(=O)[C@@H]1C[C@H]2CC[C@H](O)C[C@H]2N1Cc1ccc(Cl)cc1	nt	nt	nt	4701	-14	-6	nt
CCN(CC)c1ccc(/C=N/N2CCN(Cc3ccc(C)cc3C)CC2)c(O)c1	nt	nt	nt	11213	0	-11	nt
CC(=O)N(C)c1nnc(-c2ccccn2)s1	1	2	9	3002	3	-29	6.0
SMILES	Sa ugtP lethal	Mtb hypoxia rep	Mtb hypoxia rep growth	Autofluor counter	BJeLR viability	PrP 5UTR inh	RN4220 kill
O=C(CCCn1c(=S)[nH]c2cc3c(cc2c1=O)OCO3)N1CCN(c2ccc(F)cc2)CC1	-18	0	7	9321	9	-34	2.9
CCn1nc(C)cc1C(=O)Sc1cccc(Cl)c1	67	-3	9	nt	3	-11	3.4
O=C1CSC(=S)N1N=Cc1cccnc1	4	6	4	nt	nt	nt	1.8
CC(C)(C)NC(=O)CC(c1ccccc1)c1ccccc1O (stereo unspecified)	4	6	2	15863	-6	-10	0.9
Cc1cccc(NC(=O)CSc2ccc(-c3ccco3)nn2)c1	6	9	8	8739	-2	-22	5.7
Cn1cc(Br)c(-c2cccc(NC(=O)CCC(=O)O)c2)n1	3	7	-5	?	4	-6	3.5
CC12CCC(C(=O)N(CC(O)CN3CCCCC3)C1=O)C2(C)C (stereo unspecified)	10	5	0	11091	7	-40	6.5
CC1CCCCC1NS(=O)(=O)CCNC(=O)c1ccccc1 (stereo unspecified)	nt	nt	nt	?	9	2	nt
COc1ccccc1/C=C/C(=O)NCC(=O)NN=C(C)c1ccc(Cl)cc1	-9	3	-6	nt	nt	nt	1.4
O=C(Nc1cccnc1)c1cc2cc(Br)ccc2oc1=O	9	6	14	4371	9	-1	6.6
CC(=O)/C=C\c1ccccc1OC(=O)c1cc2ccccc2oc1=O	5	-2	0	3240	9	-69	4.9
COC(=O)C1=Nc2ccccc2/C1=C\c1c(O)n(-c2ccc(OC)cc2)c(=O)[nH]c1=O	6	8	7	15224	8	-16	5.4
COC(=O)[C@H]1C[C@@H]1[C@H](NC(=O)OCc1ccccc1)c1ccccc1	nt	nt	nt	4100	-5	-17	nt
O=C(Nc1ccon1)c1ccccc1Cl	-4	5	5	8322	-18	-9	5.8
COc1ccc(NC(=O)c2cccc(Cn3cc(Br)cn3)c2)cn1	4	6	3	7090	12	-5	4.4
Fc1c(F)c(-n2nnc3ccccc32)c(F)c(F)c1Cl	16	6	-4	3530	-2	-19	2.5
COc1ccc([N+](=O)[O-])cc1NC(=O)CSc1nc(C)cc(C)n1	0	0	8	3048	-10	-34	-1.2
Cc1cc(C)cc(-c2nnc(SCC(=O)c3c(N)n(C4CC4)c(=O)[nH]c3=O)o2)c1	1	6	-3	nt	nt	-27	2.3
CCN(CC(=O)Nc1ccc(OC(F)F)cc1)C1CCCCC1	7	2	10	4874	-5	-14	1.0
Cc1ccc2nc(-c3ccccc3)c(CN3CCN(c4ccccc4F)CC3)n2c1	6	-4	6	2556	-1	-23	1.8
O=C(NCc1ccc(Cl)cc1)C(=O)NCC1OCCN1C(=O)c1ccc(Cl)cc1 (stereo unspecified)	0	10	5	4500	-6	-14	1.3
Cc1nn(CC(=O)Nc2ccc(N3CCOCC3)cc2)c(C)c1[N+](=O)[O-]	0	4	6	3853	nt	-42	1.6
CC(=O)c1ccc(N2CCN(S(=O)(=O)c3cccc4nonc34)CC2)cc1	13	14	15	3930	-11	nt	11
COc1ccc(C(=O)NCC(=O)N/N=C/c2ccc(C)o2)cc1OC	nt	nt	nt	6560	6	-14	nt
COC(=O)c1cn(NC(=O)c2ccc([N+](=O)[O-])cc2Cl)c(=O)c2ccccc12	3	5	-6	3971	-10	15	-5.8
SMILES	Sa ugtP lethal	Mtb hypoxia rep	Mtb hypoxia rep growth	Autofluor counter	BJeLR viability	PrP 5UTR inh	RN4220 kill
O=C(CSc1ncccc1C(=O)O)c1ccccc1	-4	5	6	8738	-6	-3	-0.4
CC(C)OC(=O)c1ccc(NC(=O)c2ccccc2)cc1	3	3	8	1916	-12	-100	3.4
COc1cccc(/C=C2\SC(=O)N(CCC(=O)NNC(=O)c3cccc(Cl)c3)C2=O)c1	-6	3	-2	8396	11	-30	3.3
COc1c(C)cccc1C(=O)NCc1ccc2c(c1)OCO2	8	-2	0	3541	-19	-4	4.2
O=C(N/N=C/c1ccc(OC(=O)c2ccc([N+](=O)[O-])cc2)cc1)c1cccnc1	nt	nt	nt	5043	2	0	nt
Clc1ccccc1OCc1nnc(-c2ccccc2)o1	12	nt	nt	4996	-3	-27	9.3
Cc1ccc(N2CC(C(=O)Nc3ccccc3C(=O)N3CCOCC3)CC2=O)cc1 (stereo unspecified)	3	3	11	6070	12	-1	2.2
COc1ccccc1Cn1c(/C=C/c2ccccc2)nc2ccccc21	-20	14	-6	2786	1	-67	-3.4
C(#CCN1CCOCC1)COCCOC(c1ccccc1)c1ccccc1	6	7	4	11595	6	-20	4.7
CC(C)Oc1ccc(C=NNC(N)=S)cc1	-3	nt	nt	nt	nt	nt	9.0
COc1cc(C(=O)O/N=C2\C=CC(=O)C(C)=C2)cc(OC)c1OC	nt	nt	nt	9263	-6	-23	nt
CCC1CCCCN1C(=O)CSc1nc(N)c(NC(=O)c2ccc(OC)c(OC)c2)c(=O)[nH]1 (stereo unspecified)	-3	-8	-2	5703	6	-3	-0.3
CCOC(=O)C1C2COc3ccc(Br)cc3C2N2C(=O)CN(Cc3ccc(Cl)cc3)C(=O)[C@@]12C (stereo partly specified)	21	6	11	nt	nt	nt	0.0
COc1cccc(/C=N/Nc2nc3ccccc3n3cnnc23)c1O	nt	nt	nt	2141	4	21	nt
CC(=O)c1cccc(NC(=O)c2cc(-n3cnnc3)ccc2Cl)c1	21	nt	nt	2741	3	-4	-2.8
Cc1ccc(C)c(N2CCN(C(=O)c3cc(S(=O)(=O)N4CCOCC4)cn3C)CC2)c1	-6	-6	7	4389	4	-14	-2.5
O=C1Nc2cc(Cl)c(Cl)cc2N(O)N1c1ccc(Cl)cc1	-2	3	-5	9987	0	-9	3.1
CCOc1ccc(N2C(=O)C3ON(c4ccccc4)C(c4cccs4)C3C2=O)cc1 (stereo unspecified)	-5	-12	-2	4494	-12	-14	0.5
COc1cc(C=NNC(=O)COc2cccc(F)c2)ccc1OS(=O)(=O)c1ccc(C)cc1	-19	5	-5	nt	nt	nt	-3.6
O=S(=O)(NCCC1CC1(Cl)Cl)c1ccc(Cl)cc1 (stereo unspecified)	-9	20	16	4331	3	-6	0.5
COc1ccc(N(CC(=O)Nc2nc3ccc(C)cc3s2)S(=O)(=O)c2c(C)nn(C)c2C)cc1	-5	-10	4	5953	-3	-14	18
COc1ccccc1NC(=O)Nc1nc(CC(=O)Nc2cc(F)ccc2F)cs1	-5	3	2	5739	-3	-18	-0.7
O=C(Nc1ccc(N2CCOCC2)cc1)C1CCN(C(=O)OCc2ccccc2)CC1	6	4	9	5034	3	-17	4.8
CCCCn1c(N)c(N(CCOC)C(=O)c2cc(=O)[nH]c3ccccc23)c(=O)[nH]c1=O	8	8	4	4080	nt	-10	1.5
CN1CC2C3C(=O)N(Cc4ccccc4)C(=O)C3[C@](C)(C1=O)N2C(=O)c1ccc(F)cc1 (stereo partly specified)	-3	0	4	nt	nt	nt	8.8

One compound at a time, from the list above:
Profile of `CCCn1c(C(O)c2cccc(OC)c2)nc2ccccc21` (stereo unspecified) : Sa ugtP lethal: -2; Mtb hypoxia rep: 7; Mtb hypoxia rep growth: 6; Autofluor counter: 3118; BJeLR viability: -4; PrP 5UTR inh: -15; RN4220 kill: -1.7
Profile of `CCCCn1c(N)c(N(CCOC)C(=O)c2cc(=O)[nH]c3ccccc23)c(=O)[nH]c1=O` : Sa ugtP lethal: 8; Mtb hypoxia rep: 8; Mtb hypoxia rep growth: 4; Autofluor counter: 4080; BJeLR viability: nt; PrP 5UTR inh: -10; RN4220 kill: 1.5

Later entries.
SMILES	Sa ugtP lethal	Mtb hypoxia rep	Mtb hypoxia rep growth	Autofluor counter	BJeLR viability	PrP 5UTR inh	RN4220 kill
COc1cccc2c3c(c(=O)[nH]c12)CCC(C)(C)O3	-8	6	0	2521	-9	-19	4.2
COc1ccc(CN2C(=O)CSC2c2ccccn2)cc1 (stereo unspecified)	3	-2	-1	4236	19	2	3.0
COc1ccc(CCNC(=O)C2=COCCO2)cc1	-8	nt	nt	3130	14	-57	-7.9
COc1ccc([N+](=O)[O-])cc1N/C(=N/S(=O)(=O)c1ccccc1)c1ccccc1	-14	-9	-9	3676	-7	-13	-1.3
Cc1ccc2c(c1)c1c3n2CCN(C=O)C3CCC1 (stereo unspecified)	-3	3	-1	3737	-11	-15	1.3
Nc1c(C=C2C=CC(=O)C=C2)c(=O)nc2sc(CC(=O)N3CCCC3)nn12	5	12	14	5091	4	-4	2.2
Cc1ccc(OCc2nnc(SCC(=O)CC(=O)Nc3ccccc3)o2)cc1	-4	4	5	4192	-6	-53	-0.1
Cc1c(/C=N/n2cnnc2)c2ccccc2n1C	nt	nt	nt	6581	14	-4	nt
C=CCNC(=S)N1CCN(c2ccc([N+](=O)[O-])cc2)CC1	13	19	14	2187	8	-12	4.7
O=S(=O)(NCC1CC1)c1ccc(F)c(Cl)c1	2	16	5	3823	6	-47	-0.1
CCCCCCCCNC1=CC(=O)CC(C)(C)C1	-2	-2	22	3545	0	1	-2.1
O=C(CC1CCCC1)NCCS(=O)(=O)N1CCN(c2ccc(F)cc2)CC1	6	1	-2	4409	-1	-15	2.9
CN1C(=O)c2cccc(NCCCCCCN3C(=O)c4ccccc4C3=O)c2C1=O	-5	nt	nt	2385	-4	-21	-3.6

Rows were taken by chance; any-hit rate near 4%.
